Source: PubChem
Mtb growth: Mycobacterium tuberculosis H37Rv growth inhibition, cell based, confirmatory dose response (AID 1949) | M. tuberculosis H37Rv growth inhibition | most inactive calls were filed without a number and no value below 0 was filed | hit rate 1.6% among 100,000 | one-dose inhibition, % at 10 µg/mL; IC50 in µg/mL for titrated hits;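 active = confirmed in a dose series; inconclusive = about 50% or more but not retested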;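 note: bacteria grown 7 days with compound before Alamar blue readout; 0% = untreated bacteria and 100% = reference antibiotic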
The depositor's hits bear a star; i = inactive; u = inconclusive. These rows are one share of the data, so the mix of outcomes need not match the whole.

SMILES	Mtb growth
N#Cc1cc(SCCC(=O)O)c(N2CCOCC2)cc1C#N	i
c1ccc(CNCCC(c2ccccc2)c2ccco2)cc1 (stereo unspecified)	i
CCOc1cc(CN2CCN(C(=O)c3ccccc3F)CC2)ccc1OC	i
CS(=O)(=O)N(CC(=O)NC1CC2CCC1C2)c1ccc(I)cc1 (stereo unspecified)	i
Cc1cc(S(=O)(=O)NC(C)C)ccc1OCC(=O)N1CCCC1	i
O=C(CN(c1ccc(F)cc1)S(=O)(=O)c1ccccc1)NC1CCCC1	i
COC(=O)Cc1ccc(NC(=O)c2ccc(-c3ccccc3)cc2)cc1	i
COc1ccc(S(=O)(=O)n2nc(C)cc2C)c(C)c1C	i
O=C(CN1CCCCCC1)Nc1cccc([N+](=O)[O-])c1	1.3%
O=C(NCc1ccco1)Nc1ccc(Br)cc1	i
COc1cccc(C(=S)N2CCCC2)c1OC	i
CC(C)COc1ccc(C(=O)N2c3ccccc3CC2C)cc1 (stereo unspecified)	6.3%
CCS(=O)(=O)c1nnnn1-c1ccccc1F	i
Cc1ccc(NC(=S)N2CCN(CCN3C(=O)c4cccc5cccc(c45)C3=O)CC2)cc1	2.2%
CC(C)Cc1nnc(NC(=O)c2ccc(-c3ccccc3)cc2)s1	i
CCOc1ccc(N2C(=O)CN(C)C2=S)cc1	i
Cc1ccc(OC(=O)COc2ccc(Cl)cc2)c(Br)c1	i
Cc1ccccc1NC(=O)CCCC(=O)Nc1ccccc1C	i
CCOC(=O)c1cccc2c1-c1ccccc1C2=O	i
CC(=O)c1cccc(NC(=O)NC(C)C2CCCO2)c1 (stereo unspecified)	i
COc1ccc(C)cc1NC(=O)NCc1cc(C)n(C)n1	i
CC(=O)N(C)c1ccc(NC(=O)CCN2C(=O)c3ccccc3C2=O)cc1	1.4%
C=CCNC(=S)NNC(=O)COc1ccc2cc(Br)ccc2c1	2.6%
Cc1cccn2c(=O)c3cc(S(=O)(=O)c4ccccc4)c(=N)n(CCc4ccccc4)c3nc12	i
CC(C)(C)NC(=O)c1cccc(NC(=O)COc2ccccc2)c1	i
(more compounds)
SMILES	Mtb growth
CCOCCC(=O)Nc1ccccc1C(=O)NC(C)C	i
CCc1ccc(OC(C)c2nnc(SCC(=O)Nc3ccc(C)c(Cl)c3)n2C)cc1 (stereo unspecified)	i
Cc1ccc(-n2c(SCC(=O)N3CCc4ccccc43)nnc2-c2ccncc2)cc1Cl	i
O=C(Nc1cccc(F)c1)c1ccc(Cl)c(Cl)c1	i
O=S(=O)(c1ccc(Cl)cc1)N1CCCCC1c1cccnc1 (stereo unspecified)	0.8%
CCOc1ccc(S(=O)(=O)Nc2nccs2)cc1	i
Cc1ccc(Cl)cc1N1CCN(C(=O)CN(c2c(C)cccc2C)S(C)(=O)=O)CC1	4.4%
CCC(C)NC(=O)c1ccccc1NC(=O)c1ccco1 (stereo unspecified)	7.3%
O=C(NCCC1=CCCCC1)c1c(F)c(F)c(F)c(F)c1F	i
CN1CCN(C(=O)C2CCN(S(C)(=O)=O)CC2)CC1	i
O=C(Nc1ccccc1)Nc1ccccc1C1CC1	15.7%
COc1cc(C2NC(=O)NC(C)=C2C(=O)OCc2ccccc2)cc(Cl)c1O (stereo unspecified)	i
CCc1ccc(S(=O)(=O)Nc2ccc(-c3cn4ccccc4n3)cc2)cc1	1.5%
CC(=O)Nc1cc(NC(=O)C2C3C=CC(C3)C2C(=O)O)ccc1Cl (stereo unspecified)	0.9%
COc1c(Cl)cc(C(=O)NC(=S)Nc2ccc(-c3cc4ccccc4oc3=O)cc2)cc1Cl	i
O=C1c2ccccc2C(=O)N1OS(=O)(=O)c1cccs1	0.1%
CCS(=O)(=O)n1nc(NCc2ccc(F)cc2)nc1NCc1ccc(F)cc1	3.9%
O=S(=O)(Nc1ccc2oc3c(c2c1)CCCC3)c1cccc2ccccc12	i
O=C(C1CCN(S(=O)(=O)c2ccc(Cl)cc2)CC1)N1CCC(Cc2ccccc2)CC1	i
O=C(Nc1ccc2oc(-c3cccc(Cl)c3)nc2c1)c1ccc(-c2ccccc2[N+](=O)[O-])o1	1.9%
c1ccc(CCc2nc(-c3ccccn3)no2)cc1	7.3%
CC(=O)c1cccc(NC(=O)NCCC2=CCCCC2)c1	5.1%
Cc1cc(-c2nn(C)c(=O)c3ccccc23)ccc1CNC(=O)Nc1ccccc1	i
COc1ccc(NC(=S)Nc2c(C)nn(Cc3ccc(Cl)c(Cl)c3)c2C)c(OC)c1	i
CC(c1ccccc1)n1c(-c2cc(C(C)(C)C)[nH]n2)n[nH]c1=S (stereo unspecified)	i

Some values from the results shown.
For Mtb growth, CCS(=O)(=O)n1nc(NCc2ccc(F)cc2)nc1NCc1ccc(F)cc1 has 3.9%
For Mtb growth, O=C(Nc1ccccc1)Nc1ccccc1C1CC1 has 15.7%
For Mtb growth, CCC(C)NC(=O)c1ccccc1NC(=O)c1ccco1 (stereo unspecified) has 7.3%

Retrieved by compound from the list above:
SMILES	Mtb growth
CCOCCC(=O)Nc1ccccc1C(=O)NC(C)C	i
CCc1ccc(OC(C)c2nnc(SCC(=O)Nc3ccc(C)c(Cl)c3)n2C)cc1 (stereo unspecified)	i

Additional records:
SMILES	Mtb growth
COc1ccc(NC(=O)c2c(Cl)ccc(Cl)c2OC)c(OC)c1	18.2%
Cn1c(SCC(=O)NC2CCCCC2)nnc1-c1cc(Br)ccc1O	i
Cc1cc(OCCCN2CCC(C)CC2)cc(C(C)C)c1	i
C/C=C/c1ccc(OCCN2C(=O)NC(C)(C)C2=O)c(OC)c1	i
CC(C)c1ccc(NC(=S)Nc2ccccn2)cc1	i
O=C(NCc1ccccc1Br)C1CCCO1 (stereo unspecified)	i
N#CCN1C(=O)c2ccccc2S1(=O)=O	0.4%
O=C(CC(Nc1ccc(Br)cc1)C(=O)O)c1ccccc1 (stereo unspecified)	i
O=C1C(=O)N(Cc2ccc(F)cc2Cl)c2ccccc21	0.2%
COc1ccccc1NC(=O)C1(c2ccc(OC)c(OC)c2)CCOCC1	i
Cc1ccc(C(=O)Nc2sc(C)c(C)c2C(N)=O)o1	i
Cc1c(C=O)c(C=O)c(C)n1-c1ccc(N(C)C)cc1	i
Cc1ccccc1CN(CC(=O)N1CCN(C)CC1)S(=O)(=O)c1ccc(Cl)cc1	i
Cn1nnnc1SCC(=O)NCc1ccc2c(c1)OCO2	i
O=C(CSc1n[nH]c(-c2ccncc2)n1)NCc1ccccc1	i
Cc1ccc(C(=O)NC(=S)Nc2nc3ccccc3s2)cc1	i
COc1ccc(C(=O)N2CCC(C(=O)Nc3ccc(F)cc3F)CC2)cc1	i
COc1ccc(CNC(=O)CN(c2ccc(C(C)C)cc2)S(=O)(=O)c2ccc(C)cc2)cc1	i
COc1ccc(C(=O)N(Cc2ccc(C)o2)C2CCS(=O)(=O)C2)cc1Cl (stereo unspecified)	i
Cc1cc(C)cc(C(=O)Nc2cccc(C)c2C)c1	i
CC(=O)c1cnc(Nc2nc(C)c3cc(C)ccc3n2)nc1C	2.5%
Nc1c(C(=O)c2ccccc2)sc2nc3c(cc12)C(=O)CCC3	5.2%
Cc1cc(C(F)F)n2ncc(C(=O)NCc3ccccc3Cl)c2n1	i
O=C1CN(c2ccccc2)C(=O)CN1c1ccccc1	i
Cc1cc(OCC(=O)Nc2ccc(S(=O)(=O)N3CCCCC3)cc2)cc(C)c1Cl	i
Other results.
SMILES	Mtb growth
COc1cc(C)c(C(C)C)cc1S(=O)(=O)NC1CC(C)(C)NC(C)(C)C1	i
O=C(Nc1nc(-c2ccc(Br)cc2)cs1)c1cc(Cl)ccc1Cl	i
COCCNC(=O)C1CCN(Cc2ccccc2OC)CC1	i
CCOC(=O)c1ccc(NC(=O)c2csc3c2CCCC3)cc1	u
CN(Cc1ccccc1)S(=O)(=O)c1ccc(NC(=O)C2CC2)cc1	i
OC(COc1ccc2ccccc2c1Br)Cn1ccnc1 (stereo unspecified)	5.39µg/mL*
Cc1ccc(S(=O)(=O)N(CC(=O)Nc2cccc([N+](=O)[O-])c2)c2ccccc2)cc1	i
CS(=O)(=O)N1CCN(c2ccc(N)cc2)CC1	i
COc1ccc(OC)c(NC(=O)c2c(NC(=O)CN3CCOCC3)sc3c2CCC3)c1	i
CCN(CC)S(=O)(=O)c1ccc(NC(=O)CN(c2cc(Cl)cc(Cl)c2)S(C)(=O)=O)cc1	5.3%
Cc1cccn2cc(CNc3ccccc3)nc12	i
CC(C)NC(=O)c1ccccc1NC(=O)c1ccc(N(Cc2ccccc2)S(C)(=O)=O)cc1	i
O=C(N/C(=C/c1cccs1)C(=O)N1CCCC1)c1ccccc1	i
CC(=O)NC(=S)Nc1ccc(NC(=S)NC(=O)c2ccc(OC(C)C)cc2)cc1	i
Nc1nc(-c2cccnc2)nn1C(=O)c1ccco1	i
Cc1occc1C(=O)Nc1cccc(NC(=O)c2ccoc2C)n1	i
O=C(CSc1nnc(-c2ccc([N+](=O)[O-])cc2)n1-c1ccccc1)Nc1ccc(Cl)cc1	i
O=C(Cn1cc(Br)c([N+](=O)[O-])n1)Nc1ccccc1F	i
CCOc1ccc(C(=O)Nc2cc(NC(=O)c3ccco3)ccc2OC)cc1Br	i
C=C1C2(C(=O)Nc3nc4ccc(Br)cc4s3)CCC(C2)C1(C)C (stereo unspecified)	11.4µg/mL*
COc1ccc(/C=C(/C#N)c2ccc(Cl)cc2)cc1[N+](=O)[O-]	4.2%
CN(C)C(=O)Nc1ccc(F)cc1F	i
COC(=O)c1c(C)oc2ccc(OC(=O)c3cccc([N+](=O)[O-])c3)cc12	3.65µg/mL*
CC(=O)Nc1ccc2c(c1)nc(CN1CCCC1)n2C	i
CC(C)SCc1nc2ccccc2[nH]1	i

Arranged by number of heavy atoms (lowest first): 8 of the compounds above
SMILES	Mtb growth
CN(C)C(=O)Nc1ccc(F)cc1F	i
CS(=O)(=O)N1CCN(c2ccc(N)cc2)CC1	i
COc1ccc(/C=C(/C#N)c2ccc(Cl)cc2)cc1[N+](=O)[O-]	4.2%
O=C(N/C(=C/c1cccs1)C(=O)N1CCCC1)c1ccccc1	i
CN(Cc1ccccc1)S(=O)(=O)c1ccc(NC(=O)C2CC2)cc1	i
CC(=O)NC(=S)Nc1ccc(NC(=S)NC(=O)c2ccc(OC(C)C)cc2)cc1	i
Cc1ccc(S(=O)(=O)N(CC(=O)Nc2cccc([N+](=O)[O-])c2)c2ccccc2)cc1	i
O=C(CSc1nnc(-c2ccc([N+](=O)[O-])cc2)n1-c1ccccc1)Nc1ccc(Cl)cc1	i

More records:
SMILES	Mtb growth
Cc1ccc(OCCCCCNCCO)cc1C	i
Cc1c(Br)ccc(NC(=O)CSc2nnc(Cc3ccccc3)o2)c1C	i
CSc1cccc(NC(=O)CSc2ccc(C)cc2)c1	i
CCC(C(=O)Nc1cc(OC)cc(OC)c1)c1ccccc1 (stereo unspecified)	4.8%
O=Cc1coc2ccc3ccccc3c2c1=O	u
CN(C)Cc1cc(C(C)(C)C)cc(CN(C)C)c1O	3.9%
O=c1oc2ccccc2cc1-c1cn2cc(Cc3cccc(C(F)(F)F)c3)sc2n1	i
Cc1cccc(C(C)(C)C)c1OCCCNC(C)(C)C	i
CCCNC(=O)Nc1ccc2c(c1)oc1ccccc12	i
COc1ccc(CNC(=S)Nc2ccc(Cl)cc2Cl)cc1OC	i
CCOC(=O)c1c(C)cc(=O)[nH]c1SCC(=O)c1ccc(Cl)cc1	5.5%
Cc1ccc(S(=O)(=O)C2CCOC2=O)cc1 (stereo unspecified)	i
O=C(CSc1nnc(-c2ccco2)n1-c1ccccc1)c1ccc(F)cc1	i
C=CCNC(=O)C(=O)Nc1ccc(C)c(C)c1	0.5%
c1ccc(Oc2cccc(CSc3ncn[nH]3)c2)cc1	i
CCOc1ccccc1N1CCN(C(=O)c2cc(OC)cc(OC)c2)CC1	i
CCN1CCN(C(=O)CN(c2cc(C(F)(F)F)ccc2Cl)S(C)(=O)=O)CC1	i
Cc1nn(C(C)(C)C)c(OC(=O)c2ccc([N+](=O)[O-])cc2)c1Sc1ccccc1	i
CSc1ccc(S(=O)(=O)Nc2ccccc2Cl)cc1	i
Fc1ccc(NC(=S)Nc2cccc3ccccc23)cc1Cl	u
CCSc1ccccc1C(=O)Nc1cc(OC)c(Cl)cc1OC	i
CC1=C(C(=O)Nc2ccc(F)c(F)c2)C(c2ccccc2C)NC(=O)N1 (stereo unspecified)	i
N#CC1=C(SCC(=O)N(c2ccccc2)c2ccccc2)NC2=C(C(=O)CCC2)C1c1ccccc1F (stereo unspecified)	i
COc1ccccc1OCCCn1cc(C(=O)C2CC2)c2ccccc21	i
CCOCCC(=O)Nc1nccs1	i
Continued:
SMILES	Mtb growth
COc1cc(C(=O)Nc2sc3c(c2C(N)=O)CCCC3)cc(OC)c1OC	i
COCc1nnc(NC(=O)c2cccs2)s1	i
CCCCNCCCCOc1c(C)cccc1C(C)(C)C	i
O=C(Oc1c(Br)cc(Cl)c2cccnc12)N1CCOCC1	i
Oc1cccc(-c2nc3ccccc3s2)c1	i
COc1ccc(C(=O)N2c3c(OC)cccc3-c3c(ssc3=S)C2(C)C)cc1	i
COC(=O)c1c(NC(=S)N2CCN(C(=O)c3sc4cc(Cl)ccc4c3Cl)CC2)sc(C(=O)N(C)C)c1C	i
CC(C(=O)N1CCN(c2ccccc2)CC1)c1ccc([N+](=O)[O-])cc1 (stereo unspecified)	i
Cc1cc(Cl)ccc1OC(C)C(=O)N1CCOCC1 (stereo unspecified)	i
Cc1ccc(C2Nc3ccccc3C(=O)N2c2ccccc2)cc1 (stereo unspecified)	i
CC(C)(C)c1ccccc1NC(=O)c1cccc(Br)c1	i
COc1ccc(-n2c(SCc3ccccc3F)nc3ccccc3c2=O)cc1	4.6%
Cc1c(Cl)cccc1Nc1nc(-c2ccc(O)c(O)c2)cs1	i
CSc1ccccc1NC(=O)c1ccc(NS(=O)(=O)c2ccccc2)cc1	i
CCOc1ccc2nc(SCC(=O)Nc3ccc(C(C)=O)cc3)[nH]c2c1	25.7%
O=C(NCc1ccc2c(c1)OCO2)C1(S(=O)(=O)c2ccccc2)CC1	i
COc1ccc(C(=O)Nc2cnn(Cc3c(F)cccc3Cl)c2)cc1OC	i
Cc1cccc(NC(=O)CN(c2ccc(C)cc2C)S(=O)(=O)c2ccccc2)c1	2.7%
CCOC(=O)c1ccc(NC(=O)C(C)Oc2ccc(OC)cc2)cc1 (stereo unspecified)	14.9%
Cc1ccc(C)c(NCc2ccccc2CO)c1	i
